# Compound activity from PubChem BioAssay.
# Mtb H37Rv: M. tuberculosis H37Rv growth inhibitors, H37Rv strain (AID 1626) | M. tuberculosis H37Rv growth inhibition; higher % means a stronger effect | 220,000 tested, 0.95% active | one-dose inhibition, % at 10 µM; IC50 in µM for titrated hits;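 active = confirmed in a dose series; inconclusive = inhibition above 80% but not taken into the dose series; inactive = below 80% or under 30% at every dose of the series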;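 note: bacteria incubated seven days before Alamar blue readout; 0% = bacteria only wells and 100% = bacteria with antibiotic wells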
# RecA splice inh: blocks M. tuberculosis RecA intein splicing. inhibition, %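 (about 9 µM by stock and volumes)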. 290,000 tested, 0.75% active. P9WHJ3. cell-free RecA intein splicing, fluorescence; in the data active = inhibition above about 30%; inconclusive = no clear call, values can overlap the other calls;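 note: 0% = vehicle wells and 100% = reference inhibitor control wells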
# Target sequence (P9WHJ3 whole entry, looked up, canonical isoform): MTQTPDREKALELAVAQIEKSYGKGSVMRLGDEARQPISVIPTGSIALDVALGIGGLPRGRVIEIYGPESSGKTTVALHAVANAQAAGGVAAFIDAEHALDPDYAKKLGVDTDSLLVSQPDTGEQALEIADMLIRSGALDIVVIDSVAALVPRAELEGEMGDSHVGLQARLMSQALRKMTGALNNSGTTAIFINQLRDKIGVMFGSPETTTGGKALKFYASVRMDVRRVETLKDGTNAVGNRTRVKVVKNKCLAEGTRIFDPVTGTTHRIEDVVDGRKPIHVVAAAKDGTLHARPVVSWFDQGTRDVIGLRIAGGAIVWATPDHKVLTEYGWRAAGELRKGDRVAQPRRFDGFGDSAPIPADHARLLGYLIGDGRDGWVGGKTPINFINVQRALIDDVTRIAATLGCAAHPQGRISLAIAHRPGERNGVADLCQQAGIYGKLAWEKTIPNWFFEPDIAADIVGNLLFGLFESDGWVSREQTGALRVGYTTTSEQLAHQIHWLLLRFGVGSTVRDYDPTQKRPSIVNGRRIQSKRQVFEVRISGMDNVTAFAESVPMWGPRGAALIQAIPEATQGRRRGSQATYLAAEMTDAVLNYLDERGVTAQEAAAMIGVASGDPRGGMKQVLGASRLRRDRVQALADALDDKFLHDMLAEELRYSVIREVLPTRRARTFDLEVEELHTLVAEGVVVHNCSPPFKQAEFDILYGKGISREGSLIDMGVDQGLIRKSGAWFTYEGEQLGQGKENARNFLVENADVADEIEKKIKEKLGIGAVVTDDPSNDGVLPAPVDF
# Mtb betalactam: beta-lactam sensitization of Mtb H37Rv. M. tuberculosis H37Rv growth with meropenem, percent inhibition; hits of this screen are not shown here. inhibition, % at 25 µM. 330,000 tested, 0.27% active. AID 434955;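 active = about 74% or more and at least 40 points above the plate without the antibiotic, then above 30% in a dose series; inconclusive = first-round hits that could not be retested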;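 note: growth measured after seven days incubation then overnight dye step; 0% = bacteria only wells and 100% = bacteria with antibiotic; twin plates without the antibiotic show which effects depend on it; some results filed as inactive read as strong as hits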
# Arbovirus inh: arbovirus infection inhibition | inhibition, % at 10 µM | arbovirus infection cell-based antiviral screen | 200,000 tested, 0.37% active;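 active = inhibition from about 30%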;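 note: bluetongue infection of BSR cells; cell survival read as ATP light after 72 h; 0% = infected wells without compound and 100% = uninfected wells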
# YopH inh: inhibitors of Yersinia enterocolitica YopH tyrosine phosphatase; fluorescence Ex485/Em525; inhibition, %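 (about 10 µM by stock and volumes)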; 140,000 tested, 0.16% active; AID 898;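 active = inhibition of 50% or more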;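 note: controls were vehicle for no effect and minimum signal wells for full effect; inactives centre near -20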
# Arbovirus inh repeat: further read-out of Arbovirus inh, marked with its call; inhibition, %; measured here: 10K subset replicate screen; many hits read low in the repeat;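 first of two repeat runs on a subset; 0% = infected and 100% = uninfected wells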
# Starred values were filed as active, the others as inactive; ? = inconclusive; nt = not tested or not shown. An excerpt; rates above refer to the full screens.
SMILES,Mtb H37Rv,RecA splice inh,Mtb betalactam,Arbovirus inh,YopH inh,others
COc1ccc(/C=C(\C#N)c2c[nH]c3ccccc23)cc1,nt,-0.2,66.3,nt,nt,
O=C(O)c1cccc2c1C(=O)N(C1CCCC1)C2,nt,0.1,-10.4,nt,nt,
Cc1ccc(N(C(=O)c2csnn2)C(C(=O)NC2CCCC2)c2cccnc2)cc1 (stereo not drawn),nt,-1.5,-1.1,nt,nt,
O=C(Cc1coc2ccc3ccccc3c12)Nc1nnc(C2CC2)s1,nt,0.6,73.7,0.4,-29.0,
CC1Cc2ccccc2N1C(=O)COC(=O)c1cccnc1Cl (stereo not drawn),3.4%,-2.1,3.0,10.0,-16.9,
O=C(COc1ccc(F)cc1Cl)Nc1ccc(S(=O)(=O)Nc2nccs2)cc1,nt,-0.4,-1.1,nt,nt,
Cc1ccc(N(CCC#N)C(=O)COC(=O)c2nc3nc(C)cc(C)n3n2)cc1,nt,-1.2,4.1,nt,nt,
Cc1c(NC(=O)/C=C/c2ccc(S(=O)(=O)N3CCOCC3)cc2)c(=O)n(-c2ccccc2)n1C,-3.7%,1.4,-1.7,0.3,nt,
Cc1ccc(C(=O)N(CC(C)C)c2nc3ccccc3s2)o1,nt,20.2,4.9,nt,nt,
C(=C\c1ccccc1)/CNCC1CCCO1 (stereo not drawn),-8.1%,-3.1,-2.6,1.2,nt,
CN(Cc1ccc(F)cc1)C(=O)CCc1nnc(-c2ccccc2)o1,-2.5%,3.5,4.5,-1.1,nt,
CCOc1ccc2[nH]c3c(NCCN(CC)CC)ncnc3c2c1,nt,1.2,6.2,nt,nt,
Nc1ccc2c(c1)sc1ccccc12,?,3.1,98.1,-17.7,-18.4,
CCCCSc1nc2ccccc2n1CC(=O)O,-0.8%,-3.0,3.4,1.3,-16.4,
COc1ccc(C(=O)CCC(=O)N2CCN(c3ccccc3)CC2)cc1,nt,2.1,-0.8,nt,nt,
COc1ccc(-c2noc(CSc3nc(N)cc(=O)[nH]3)n2)cc1,-5.4%,2.7,1.4,nt,nt,
O=C(NCCc1c[nH]c2ccccc12)/C(=C/c1cccnc1)NC(=O)c1ccccc1,0.9%,-0.4,-5.2,-0.4,nt,
COc1ccc(C2NCc3ccc4c(c3-n3cccc32)OCO4)cc1O (stereo not drawn),-2.3%,1.5,-4.8,-8.4,-29.5,
c1nc(N2CCCCC2)c2[nH]cnc2n1,-3.4%,6.5,1.4,8.1,-30.6,Arbovirus inh repeat=0.5
CC(C)C(NC(=O)C12CC3CC(CC(C3)C1)C2)C(=O)N/N=C/C1=C(N2CCOCC2)C(=C\c2ccc([N+](=O)[O-])cc2)/CC1 (stereo not drawn),11.4%,-1.4,3.8,-2.8,-39.7,
COc1ccc(-n2ncc3c2CC(C)(C)CC3NC(=O)c2cnc(C)cn2)cc1 (stereo not drawn),nt,0.0,-2.3,nt,nt,
CCNC(=O)CC1C(=O)N(c2ccccc2)C(=O)N1CCc1ccc(OC)c(OC)c1 (stereo not drawn),-0.6%,0.8,-5.0,2.6,-9.3,
CNC(=O)C(=O)NCCc1ccc(Cl)cc1,-7.6%,7.4,-7.2,-2.9,0.5,
COc1ccc(OC)c(C2NC(=O)NC(C)=C2C(=O)Nc2ccc(C)cc2C)c1 (stereo not drawn),-3.9%,-4.1,-14.4,-1.1,-44.5,Arbovirus inh repeat=0.0
O=C(c1ccc2ncsc2c1)N1CCN(c2ccc(O)cc2)CC1,-3.8%,-4.8,1.8,-18.3,-9.0,
O=C(c1ccccc1)N1N=C(c2ccccc2)CC1c1ccccc1 (stereo not drawn),nt,-5.9,0.2,nt,nt,
Cc1c(Cl)ccc2c1NC(=O)C21NC(CCC(N)=O)[C@H]2C(=O)N(c3ccc(Cl)cc3)C(=O)[C@H]21 (stereo partly drawn),-7.0%,5.2,-8.8,2.1,-47.0,
CC(C)CC(NC(=O)OC(C)(C)C)c1cn([C@@H](CCC(=O)OC(C)(C)C)C(=O)N2CCN(C(=O)OC(C)(C)C)CC2)nn1 (stereo partly drawn),-6.5%,2.5,-5.5,-7.8,nt,
Cc1cccc(NC(=O)CSc2nnc([C@H](C)NC(=O)OC(C)(C)C)o2)c1C,nt,-2.1,0.7,nt,nt,
COc1ccc(NC(=S)N(CCCN2CCC(C)CC2)Cc2cccs2)cc1,-11.0%,0.3,-4.7,-2.6,nt,
COc1ccc(CNC(=O)CN(Cc2ccccc2)C(=O)CCC(=O)Nc2nccs2)cc1,nt,6.4,-2.1,nt,nt,
Cc1ccc(S(=O)(=O)NN2C(=O)c3ccccc3NC2c2ccco2)cc1 (stereo not drawn),-6.1%,0.4,-6.2,18.2,nt,
CS(=O)(=O)N1CCN(c2ccc(NC(=O)c3ccc([N+](=O)[O-])o3)cc2)CC1,?,-3.1,nt,-30.3,nt,
O=C(/C=C/c1cc([N+](=O)[O-])ccc1OC(F)F)Nc1cccc(OC(F)F)c1,-0.4%,2.2,-0.8,-5.7,-12.4,
O=C(O)CCc1ccc(-c2ccccc2)n1CC1CCCO1 (stereo not drawn),-6.0%,-4.8,-1.5,4.7,25.2,
COc1cccc(-c2nc(CS(=O)(=O)CC(=O)Nc3ccc(F)cc3F)c(C)o2)c1,nt,1.7,-1.5,nt,nt,
O=C(NCCCn1ccnc1)c1cc(-c2ccc(Br)cc2)on1,6.3%,1.1,-9.8,-10.4,nt,
Cc1csc(SCc2nc3sc4c(c3c(=O)[nH]2)CCC4)n1,-2.3%,1.5,nt,-3.0,-16.4,
O=C(N/N=C/c1cn(Cc2ccccc2)c2ccccc12)c1ccncc1,?,0.1,99.0,-5.2,nt,
Clc1ccc(-n2cc(-c3ccc(Br)cc3)[n+]3c2CCCCC3)cc1,7.5%,-1.5,-3.8,nt,nt,
COc1ccc(C2c3c(oc4ccccc4c3=O)C(=O)N2Cc2ccncc2)cc1 (stereo not drawn),-10.7%,nt,nt,-0.8,-21.8,
CC(C)n1c(O)c(/C=C2\C=Nc3ccccc32)sc1=Nc1ccccc1,-1.0%,0.4,0.0,-10.0,-32.7,
CC(C)N(Cc1ccccc1)C(=O)/C=C/c1ccccc1[N+](=O)[O-],0.8%,4.9,-2.8,8.7,nt,
C=CCn1c(SCC(=O)O)nnc1-c1ccccc1,-20.8%,-1.9,2.8,3.8,-27.9,
Cc1ccc(C)c(-c2[nH]ncc2CN2CCCC(CO)(Cc3ccccc3C)C2)c1 (stereo not drawn),7.7%,2.4,-16.0,12.9,nt,
O=C(c1ccc(Cl)cc1)c1nnc(-c2ccncc2)o1,-0.7%,-1.5,6.4,-1.4,-32.9,
Cc1cccc(C(=O)NCCc2nnc(SCC(=O)Nc3cccc(C(=O)O)c3)n2C)c1,nt,-1.8,0.3,nt,nt,
CCc1nnc(NC(=O)CSc2n[nH]c(-c3ccccc3O)n2)s1,-3.6%,-6.7,-12.2,3.8,nt,
CCN(c1ccccc1)S(=O)(=O)c1ccc(C(=O)Nc2nnc(CSC)o2)cc1,38.3%,2.9,48.4,-22.8,nt,
CC1(C)Cc2c(C#N)c(N3CCCC3)nc(-c3ccco3)c2CO1,-2.6%,-36.2,-1.4,1.9,nt,Arbovirus inh repeat=1.4

# New compounds follow
SMILES,Mtb H37Rv,RecA splice inh,Mtb betalactam,Arbovirus inh,YopH inh,others
CCNS(=O)(=O)c1ccc(CCC(=O)N2CCN(c3ccccc3)CC2)cc1,nt,0.1,-8.6,nt,nt,
COc1coc(/C=C/C(=O)O)cc1=O,-8.4%,-0.4,8.1,4.1,-36.7,
CCN(CC)S(=O)(=O)c1ccc(OC)nc1,-2.6%,-3.0,-6.5,2.5,-37.4,
Cc1nc2scc(C)n2c(=O)c1S(=O)(=O)Nc1ccc(N2CCOCC2)cc1,nt,-2.3,-1.3,nt,nt,
CC(C)CCN1C(=O)c2ccc(C(=O)OCC(=O)N(C)C3CCS(=O)(=O)C3)cc2C1=O (stereo not drawn),nt,0.2,-2.8,nt,nt,
CCc1ccc(C(=O)COC(=O)c2cccc(N3C(=O)c4c(C)nc5ccccc5c4C3=O)c2)cc1,-14.2%,2.2,-2.5,2.3,-19.4,
Cc1cccc2nc(CSc3nnnn3-c3ccccc3)cn12,6.4%,1.8,0.4,1.6,-43.2,
O=C(NCCN1CCOCC1)N1CCOCC1,-3.2%,-0.8,-1.6,6.8,-30.8,
COc1ccc(/C=N/n2c(=S)n(C)c3ccccc32)cc1OC,14.6%,3.3,93.0,-9.7,-3.4,
O=C(Nc1c(F)c(F)c(F)c(F)c1F)NC1CCCCC1,-7.5%,-1.1,-11.2,4.8,-6.1,
O=C(NCc1ccco1)/C(=C\c1ccco1)NC(=O)c1cccs1,-1.8%,0.4,16.9,-3.8,nt,
O=C1CC(c2cccc(F)c2)C2=C(CCCC2=O)N1 (stereo not drawn),4.5%,9.3,-5.9,28.6,-37.3,
COC(=O)c1c(NC(=O)c2ccco2)sc2c1CC(C)(C)NC2(C)C,nt,-0.5,-11.4,nt,nt,
COc1ccc(-c2nc(NC(=O)CSc3nnc(C)s3)ns2)cc1,2.9%,1.3,32.8,6.1,22.6,
C=C(C)c1cccc(C(C)(C)NC(=O)NNC(=O)c2ccccc2O)c1,nt,13.2,5.5,nt,nt,
COc1ccc(C(=O)NCCC2=CCCCC2)cc1OC1CCN(C(C)C)CC1,nt,-5.1,-3.3,nt,nt,
O=C(CSc1nnc(COc2cccc3cccnc23)o1)N1CCN(C(=O)c2ccco2)CC1,-3.5%,1.7,-11.5,2.0,-13.0,
O=C(CN1C(=O)COc2ccc(Cl)cc21)N1CCCCC1,nt,-3.2,4.8,nt,nt,
CCOc1ccc(S(=O)(=O)NNS(=O)(=O)c2ccc(C)cc2C)cc1,nt,-1.7,0.5,nt,nt,
CCCOc1ccc(C(=O)c2nc3c(n2O)CCCCC3)cc1,-1.6%,4.5,94.6,-1.0,-9.1,

# The closing six entries of the section above come first, to join the parts:
SMILES,Mtb H37Rv,RecA splice inh,Mtb betalactam,Arbovirus inh,YopH inh,others
C=C(C)c1cccc(C(C)(C)NC(=O)NNC(=O)c2ccccc2O)c1,nt,13.2,5.5,nt,nt,
COc1ccc(C(=O)NCCC2=CCCCC2)cc1OC1CCN(C(C)C)CC1,nt,-5.1,-3.3,nt,nt,
O=C(CSc1nnc(COc2cccc3cccnc23)o1)N1CCN(C(=O)c2ccco2)CC1,-3.5%,1.7,-11.5,2.0,-13.0,
O=C(CN1C(=O)COc2ccc(Cl)cc21)N1CCCCC1,nt,-3.2,4.8,nt,nt,
CCOc1ccc(S(=O)(=O)NNS(=O)(=O)c2ccc(C)cc2C)cc1,nt,-1.7,0.5,nt,nt,
CCCOc1ccc(C(=O)c2nc3c(n2O)CCCCC3)cc1,-1.6%,4.5,94.6,-1.0,-9.1,
CCOC(=O)Cn1c(=N)n(CCOc2cccc(C)c2)c2ccccc21,-1.0%,nt,-4.5,4.2,-24.7,
Cc1ccc(N(CC(=O)NC(C)(C)C)C(=O)CNC(=O)c2cccs2)cc1,-0.6%,0.8,-4.1,2.8,nt,
CC(Oc1ccc(-c2nnco2)cc1)C(=O)N1CCOCC1 (stereo not drawn),nt,-2.4,1.1,nt,nt,
COc1ccc(N2CCN(CC(O)COc3ccc4c(c3)CCC4)CC2)cc1 (stereo not drawn),11.3%,-1.0,16.2,3.4,-28.9,
O=C(COC(=O)C1CC(O)CN1S(=O)(=O)c1ccc(Cl)cc1)c1ccccc1 (stereo not drawn),-4.3%,1.7,-6.9,-7.0,-16.3,
CN=C1S/C(=C\c2ccc(N3CCOCC3)cc2C)C(=O)N1C,-9.6%,-6.9,-0.3,-5.8,-7.0,
O=C(O)c1ccc(NC(=S)NCc2ccccc2)cc1,nt,-1.7,-7.3,nt,nt,
Cc1cccc(N2CCN(CC(=O)Nc3ccccc3[N+](=O)[O-])CC2)c1C,0.3%,7.8,0.2,7.6,-33.0,
COC(=O)c1sc(-c2ccc(Cl)cc2)cc1NC(=O)c1ccccc1C(=O)O,2.6%,3.6,-3.9,nt,nt,
Cc1ccc(-c2cc(-c3ccccc3[N+](=O)[O-])[nH]n2)c(O)c1,nt,7.6,nt,-38.5,-18.6,
CCN(CC(=O)NCc1ccc(F)cc1)C(=O)C1CC1C (stereo not drawn),nt,-3.0,6.2,nt,nt,
N#C/C(=C\c1cn(CC(=O)N2CCCC2)c2ccccc12)C(=O)NCc1ccc2c(c1)OCO2,0.3%,0.8,3.8,-4.1,-21.8,
O=C(C[N+]12CCC(CC1)C(OC(=O)c1ccccc1)C2)c1ccc([N+](=O)[O-])cc1 (stereo not drawn),2.0%,-1.9,2.1,nt,nt,
NC(=O)c1ccc(NC(=O)c2ccc3c(c2)CCN3S(=O)(=O)c2ccccc2)cc1,nt,-1.0,7.5,nt,nt,
